Screens from PubChem BioAssay.
Rango release inh: qHTS Assay for Inhibitors of RanGTP induced Rango (Ran-regulated importin-beta cargo) - Importin beta complex dissociation; Snurportin-1 (Homo sapiens) + GTP-binding nuclear protein Ran (Homo sapiens) + Importin …; Biochemical FRET Rango-importin beta, RanGTP-induced dissociation; Potency, µM (titrated, usually from 46.1 µM), for the others: at the top dose activity change, negative = inhibition; actives 0.071% (n = 340,000); active means falling FRET ratio curve, often poorly fitted, with flat reads before Ran was added; inconclusive means other falling curves, or compound fluorescence or quenching; inactive means flat or rising ratio curve;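 note: potency is the fitted concentration of half-maximal effect; % of control where 0% means no effect; nearly all actives have a fitted effect of over 45% in size; -100% = wells without RanGTP and RCC1; the record marks most hits as doubtful in a second field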
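Compounds sat 5 min at room temperature with 0.1 uM Rango biosensor plus 0.25 uM importin beta, then FRET pre-read. RanGTP-RCC1 (0.6 uM Ran, 2mM GTP, 0.2 uM RCC1) added for 45 min, and the CFP/YFP post-read measured blocked complex dissociation.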
Rango-impB inh: qHTS Assay for Inhibitors of Rango (Ran-regulated importin-beta cargo) - Importin beta complex formation; Importin subunit beta-1 (Homo sapiens), Q14974; Rango CFP/YFP FRET sensor + importin beta, 45 min; Potency, µM (doses to about 92.2 µM), for the others: top-dose inhibition of complex formation; actives 0.031% (n = 340,000); AID 540263, 2011; active = rising FRET ratio curve, often small or poorly fitted; inconclusive = mostly compound fluorescence or quenching in the first reads; inactive = flat curves in all reads;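 note: potency is the fitted concentration of half-maximal effect; 0% = DMSO wells and 100% = buffer wells lacking importin beta; nearly all actives have a fitted effect of over 15% in size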
Target sequence (Q14974 whole entry, looked up): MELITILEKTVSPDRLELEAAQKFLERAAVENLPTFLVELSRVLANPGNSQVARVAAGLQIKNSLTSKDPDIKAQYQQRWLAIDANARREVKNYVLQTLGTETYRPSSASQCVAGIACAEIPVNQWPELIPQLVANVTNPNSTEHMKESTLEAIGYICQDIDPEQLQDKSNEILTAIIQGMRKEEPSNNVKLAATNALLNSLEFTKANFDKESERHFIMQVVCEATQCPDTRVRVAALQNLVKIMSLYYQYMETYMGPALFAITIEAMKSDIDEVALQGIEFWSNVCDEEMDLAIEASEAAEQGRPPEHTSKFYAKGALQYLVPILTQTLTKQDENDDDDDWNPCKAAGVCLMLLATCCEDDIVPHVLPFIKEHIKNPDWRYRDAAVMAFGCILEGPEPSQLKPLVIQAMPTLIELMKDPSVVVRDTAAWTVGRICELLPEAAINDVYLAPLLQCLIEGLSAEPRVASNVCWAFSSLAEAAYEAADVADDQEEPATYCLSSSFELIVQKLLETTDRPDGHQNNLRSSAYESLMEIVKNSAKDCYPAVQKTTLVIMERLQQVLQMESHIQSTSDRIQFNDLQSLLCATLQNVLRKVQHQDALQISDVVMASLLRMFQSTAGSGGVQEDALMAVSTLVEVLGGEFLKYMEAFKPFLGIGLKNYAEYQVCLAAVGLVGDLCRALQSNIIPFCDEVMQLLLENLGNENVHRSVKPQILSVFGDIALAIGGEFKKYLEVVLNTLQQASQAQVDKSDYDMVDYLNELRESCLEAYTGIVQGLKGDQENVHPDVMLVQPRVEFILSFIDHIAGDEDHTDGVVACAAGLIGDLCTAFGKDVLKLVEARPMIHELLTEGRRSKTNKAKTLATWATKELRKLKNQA
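FRET biosensor (snurportin 1 IBB flanked by EYFP and cerulean), 50 nM, with compound 5 min, then 0.125 microM importin beta in PBS, 1 mM DTT, 0.02% Tween-20, 0.1% BSA. CFP/YFP ratio read after 45 min at room temperature; pre-read flags interference.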
GLA inh pH 4.5: qHTS Assay for Inhibitors of Human alpha-Galactosidase at pH 4.5; activity change, negative = inhibition, % at 105 µM; purified enzyme, 4-MU-alpha-Gal fluorescence, pH 4.5; 230,000 tested, under 10 active; inconclusive = small, poorly fitted or top-dose-only inhibition, or a rising curve; inactive = flat fitted curve, though single readings scatter; no compound was filed as active;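 note: 0% = full activity with enzyme and -100% = basal without enzyme; dose as in the result columns while the protocol names 77 µM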
miR-21 reporter: qHTS Assay for Modulators of miRNAs and/orActivators of miR-21; HeLa miR-21 FLuc reporter, luciferase, 48 h; Potency, µM (titrated, usually from 38.3 µM), inactives show top-dose reporter change, positive = more light; 340,000 tested, under 10 active; AID 2288, 2010; active = well fitted rising curve with a large enough effect; inconclusive = small, poorly fitted or top-dose-only effect; inactive = no such curve, though single readings can be large or run the other way;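 note: % of control where 0% means no effect; miR-21 action dims this reporter so a rising signal means less miR-21 action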
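Luminescence from a firefly luciferase reporter carrying a miR-21 binding site downstream, stably expressed under a CMV promoter in HeLa cells that make miR-21 endogenously, reports miRNA modulation after 48 h compound exposure up to approximately 40uM final.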
* hit, by the source's call; ? = inconclusive; . = not tested or not shown.

Rango release inh | Rango-impB inh | GLA inh pH 4.5 | miR-21 reporter | SMILES
6% | 5.9% | -6 | 4% | O=S(=O)(c1cccc(F)c1)N1CCCN(c2ccc(C(F)(F)F)cn2)CC1
0% | 1.4% | . | 1% | Cc1ccc(C)c(NC(=O)NCc2ccccn2)c1
27% | 0.3% | . | . | CC1CC(C)CN(CC(=O)NNC(=O)COc2ccc(Cl)cc2)C1 (configuration not stated)
1% | 3.2% | -7 | -2% | COc1ccc(-c2nc(CSCC(=O)N3CCc4ccccc4C3)c(C)o2)cc1OC
-16% | 0.2% | -6 | -3% | CCOc1ccc(S(=O)(=O)Nc2ccccc2C(=O)NCc2ccco2)cc1
10% | 2.3% | . | -9% | O=C(c1ccco1)N1CCN(C(=O)c2cc3ccccc3oc2=O)CC1
? | ? | -5 | 3% | Cc1ccc2nc3c(cc2c1)c(NC(=O)c1ccco1)nn3CC(C)C
-12% | -5.0% | . | . | CCN(CC(=O)Nc1ccc(NC(C)=O)cc1)C(=O)C1(c2ccccc2)CC1
? | 0.2% | -8 | -22% | CCCCN(C)C(=O)c1sc2ncn(CC)c(=O)c2c1C
? | 0.3% | . | 1% | COC(=O)c1cc(S(=O)(=O)NCC2CCN(Cc3cc(C)ccc3C)CC2)cn1C
2% | -3.0% | -1 | 6% | Cc1ccc(-n2nnnc2-c2cnc(-c3cccnc3)nc2C(F)(F)F)cc1
6% | -1.7% | . | 8% | COCCNC(=S)N1CCN(c2nc(-c3ccccc3)cs2)CC1
-5% | 4.4% | 2 | -2% | O=C(Cn1nc2n(c1=O)-c1ccccc1SC2)N/N=C/c1ccncc1
0% | 1.0% | 6 | -7% | N#CCSc1nccc(-c2cc(Cl)sc2Cl)n1
-3% | -1.9% | . | -1% | CCN(CC)CCNC(=O)CCn1nc(-c2ccc(Cl)cc2)ccc1=O

Results in Rango release inh, GLA inh pH 4.5 and Rango-impB inh, for some of the entries so far:
SMILES,Rango release inh,GLA inh pH 4.5,Rango-impB inh
COCCNC(=S)N1CCN(c2nc(-c3ccccc3)cs2)CC1,6%,.,-1.7%
O=C(Cn1nc2n(c1=O)-c1ccccc1SC2)N/N=C/c1ccncc1,-5%,2,4.4%
N#CCSc1nccc(-c2cc(Cl)sc2Cl)n1,0%,6,1.0%

Continued:
Rango release inh | Rango-impB inh | GLA inh pH 4.5 | miR-21 reporter | SMILES
1% | 0.0% | -6 | -3% | CCC(C)NC(=O)C(CCSC)NC(=O)c1ccccc1 (configuration not stated)
-11% | -2.4% | . | . | Cc1ccc(C(C)C)c(OCC(=O)NNC(=O)Cc2ccc(S(=O)(=O)N3CCOCC3)s2)c1
8% | -0.8% | . | . | CCNC(=O)N(CC)C[C@H]1N[C@@](Cc2ccccc2)(C(=O)OC)[C@H]2C(=O)N(Cc3ccccc3)C(=O)[C@@H]12
? | ? | . | -13% | CCOC(=O)C1=C(C)OC(N)=C(C#N)C1c1cc2ccccc2nc1N1CCCCC1 (configuration not stated)
-3% | 0.9% | . | -6% | Cc1c(C)c2c(OCC(=O)NC3CC3)cc3c(c2oc1=O)CCC(C)(C)O3
-8% | 0.6% | . | 0% | O=C(c1c[nH]c(C(=O)C(Cl)(Cl)Cl)c1)c1ccccc1F
-15% | 6.8% | 3 | 1% | CCN(CC)S(=O)(=O)c1ccc(-c2nnc(SCC(=O)Nc3nc(C)cs3)o2)cc1
-3% | -0.9% | -8 | -1% | CCCn1nc(C(=O)OCC(=O)Nc2cccc(S(N)(=O)=O)c2)c2ccccc2c1=O
9% | ? | 2 | 1% | COc1cccc(NC(=O)CCNS(=O)(=O)c2cccc3nsnc23)c1
-2% | -2.9% | 3 | -3% | CCOC(=O)c1cn2cccnc2n1
25% | 0.5% | 5 | -4% | Cc1cc(C(=O)OCC(=O)c2c(N)n(C)c(=O)n(C)c2=O)c(C)o1
3% | -5.6% | -5 | 4% | O=C(Cc1n[nH]c(=O)c2ccccc12)N1CCN(c2ccc(F)cc2)CC1
-15% | -1.8% | -1 | -41% | COc1cc2c(cc1OC)-c1cc(NC3CCCCCCC3)nc(=O)n1CC2
7% | -4.1% | 5 | -4% | CCCN1CCN(C(=O)CN2C(=O)CC(C)(C)S(=O)(=O)c3ccccc32)CC1
1% | 1.4% | . | 2% | COc1ccc(N2CCN(C3CCCN(C(=O)CN4CCCCC4=O)C3)CC2)cc1 (configuration not stated)
1% | -0.8% | 7 | -11% | CCOC(=O)C1=C(c2ccccc2)Nc2ncnn2C1c1cccc(OC)c1OC (configuration not stated)
-16% | -0.7% | -8 | -3% | CS(=O)(=O)N(CC(=O)Nc1cccnc1)c1ccc2c(c1)OCO2
-2% | 3.4% | 2 | -10% | CCOc1cccc(OCCOCCN(C)C)c1
1% | -2.0% | . | . | Cc1ccc(NC(=O)C(C)N2CCN(C)CC2)cc1S(=O)(=O)N1CCOCC1 (configuration not stated)
-15% | -1.6% | . | 0% | Cc1cc(C)cc(C(=O)NC(CC(N)=O)c2ccc(N3CCC(Br)CC3)c([N+](=O)[O-])c2)c1 (configuration not stated)
-13% | -3.1% | 4 | -10% | O/N=C/c1ccccc1OCc1ccccc1Cl
0% | -0.5% | 8 | -3% | COc1cc2nc(CN(C)Cc3ccc(Cl)cc3)[nH]c(=O)c2cc1OC
6% | -2.8% | . | 2% | OC1(C#CCN2CCCC2)CCCCC1
-3% | -2.2% | 2 | -11% | CCOC(=O)CC(=O)CSc1ncnc2c1nnn2-c1ccc(OC)cc1
1% | 0.5% | . | 2% | Cc1ccccc1N1CCN(C2CCCN(C(=O)CCN3CCCCO3)C2)CC1 (configuration not stated)
9% | -2.3% | . | . | Cc1ccc(CN2CC(C(=O)Nc3ccc(S(=O)(=O)N4CCCCC4)cc3)CC2=O)cc1 (configuration not stated)
7% | 1.6% | -9 | -14% | Cc1c(Cl)cccc1NC(=O)C1NC(=O)CC1c1ccccc1 (configuration not stated)
-19% | -0.7% | 9 | -9% | CCc1ccc(N2CC(C(=O)NCc3ccc4c(c3)OCO4)CC2=O)cc1 (configuration not stated)
1% | 1.2% | -3 | -4% | CC(CO)N1CCS(=O)(=O)CC1 (configuration not stated)
1% | 0.4% | . | -1% | CC(C)N(CCNC(=O)c1ccc(OCC2CCCO2)cc1)C(C)C (configuration not stated)
11% | ? | 8 | -3% | CC(=O)Nc1cccc2c1C(=O)N(c1ccc(OC(C)=O)cc1)C2=O
-2% | 6.6% | 8 | 0% | COc1ccc(C2SCC(=O)N2CCCN(C)C)cc1 (configuration not stated)
1% | -2.4% | . | . | O=C(COC(=O)c1ccc(F)cc1F)Nc1cccc(S(=O)(=O)N2CCOCC2)c1
7% | 0.1% | 3 | 3% | O=C(O)c1cccc(N2C(=O)c3ccc(C(=O)c4cccc([N+](=O)[O-])c4)cc3C2=O)c1
1% | -0.2% | 0 | 1% | O=c1cc(O)c2c(=O)[nH]c(=O)n(-c3ccccc3)c2[nH]1
-1% | 0.1% | 6 | -1% | O=C(COC(=O)c1ccccn1)Nc1nccs1
1% | -0.4% | -1 | -7% | COc1ccc(OCC(O)COc2ccc(C(=O)O)cc2)cc1 (configuration not stated)
6% | -1.9% | . | . | Cc1ccc(NS(=O)(=O)c2ccc(C(=O)NCc3ccc(S(N)(=O)=O)cc3)cc2)cc1
7% | 0.6% | . | . | COc1ccccc1CNC(=O)CN1C(=O)NC2(CCCc3ccccc32)C1=O (configuration not stated)
21% | 0.2% | -3 | 8% | CN1CCN(NC(=O)c2ccc(Br)s2)CC1
-11% | 0.5% | 0 | 6% | COc1cc(/C=N/NC(=O)c2cc(C)oc2C)cc(OC)c1OC
12% | -1.6% | -2 | -4% | Cc1ccc(COc2ccsc2C(=O)O)cc1
3% | 2.7% | 1 | -12% | CCOC(=O)c1[nH]c2ccc(OCC)cc2c1NC(=O)CN1CCC2(CC1)OCCO2
-10% | -0.6% | -13 | -5% | COc1cc(/C=N/NC(=O)CSc2ccccn2)ccc1O
26% | 0.0% | 7 | -2% | C=CCc1cccc2ccc(=O)oc12
5% | -2.6% | 13 | 3% | Cc1cc(Cl)ccc1NC(=O)CSc1nnc(-c2ccncc2)n1Cc1ccco1
-9% | 0.5% | 23 | -2% | CCOC(=O)C1=NN(C(=O)Cc2ccccc2)C(O)(c2ccc(Cl)cc2)C1 (configuration not stated)
2% | 0.1% | 10 | -7% | O=C(Nc1nc2n(n1)C(c1ccccc1)CC(c1ccc(Cl)cc1)N2)c1ccco1 (configuration not stated)
? | ? | . | . | O=[N+]([O-])c1ccc(NN=Cc2cccc(O)c2)nc1
-4% | -1.5% | -10 | 23% | COc1ccc(C(=O)Nc2ccc(OCC(F)(F)C(F)F)c(C(F)(F)F)c2)cc1OC
. | . | 0 | 2% | CC(=O)N(Cc1ccco1)Cc1cc2cccc(C)c2n2nnnc12
? | ? | -2 | 19% | COc1cccc(/C=N/NC(=O)CNC(=O)c2ccc3c(c2)OCCO3)c1O
2% | 0.0% | . | 1% | CC(=O)N1CCOc2ccc(S(=O)(=O)NC(C)c3ccccc3)cc21 (configuration not stated)
? | ? | -9 | -1% | COc1cc(/C=C2\SC(=S)N(C(C(=O)O)c3ccccc3)C2=O)ccc1O (configuration not stated)
12% | -0.7% | . | 27% | CCOc1ccc(CCNC(=O)c2cc(-c3ccccc3)c(N3CCOCC3)s2)cc1OCC
. | . | -9 | -1% | Cc1ccc(NC(=O)COC(=O)CC2CCCC2)cc1Cl
-14% | ? | 0 | -3% | O=C(CN(Cc1ccco1)C(=O)CCC(=O)Nc1nccs1)NCc1ccccc1
-1% | -0.1% | -3 | -7% | CCC(=O)Nc1ccc(Cl)c(NC(=O)c2c(OC)cccc2OC)c1
-4% | -0.3% | . | -4% | CCC(Oc1ccccc1)C(=O)Nc1ccccc1N1CCCCC1 (configuration not stated)
? | ? | -6 | -3% | CN1C(=O)/C(=C/c2ccccc2OCc2ccccc2)NC1=S

More structures follow.
Rango release inh | Rango-impB inh | GLA inh pH 4.5 | miR-21 reporter | SMILES
-10% | 3.0% | -16 | -7% | CCCCCC(=O)Nc1nc(C)c(-c2csc(Nc3ccccc3OCC)n2)s1
-17% | ? | -3 | -1% | Cc1cccc(CC(=O)NCCn2c(C)cc3ccccc32)c1
-22% | ? | 3 | 6% | COc1ccc(OCC(=O)N2CCN(C(=O)c3ccc([N+](=O)[O-])cc3)CC2)cc1
-4% | 0.4% | . | . | CC1CCN(C(=O)COC(=O)c2cc(Cl)c3c(c2)OCO3)CC1
0% | -4.2% | 7 | 0% | C=CC(=O)NCC1OCCc2ccccc21 (configuration not stated)
10% | 0.7% | 2 | 1% | Nc1nc(SCC(=O)NNc2c(Cl)cc(Cl)cc2Cl)n[nH]1
0% | 0.2% | 2 | 0% | COc1ccc([N+](=O)[O-])cc1NC(=O)C(C)OC(=O)c1cccnc1Cl (configuration not stated)
-1% | -2.0% | -12 | -1% | Cc1ccc(C(=O)OCC(=O)Nc2ccccc2Sc2ccccc2)cc1C
-13% | 3.6% | 5 | 0% | COCCCNC(=O)CCCn1c(=O)c2ccccc2n(CC(=O)Nc2c(C)cc(C)cc2C)c1=O

Copied from the list.
C=CC(=O)NCC1OCCc2ccccc21 (configuration not stated) in Rango-impB inh shows -4.2%
Cc1cccc(CC(=O)NCCn2c(C)cc3ccccc32)c1 in GLA inh pH 4.5 shows -3
COc1ccc([N+](=O)[O-])cc1NC(=O)C(C)OC(=O)c1cccnc1Cl (configuration not stated) in Rango-impB inh shows 0.2%
Nc1nc(SCC(=O)NNc2c(Cl)cc(Cl)cc2Cl)n[nH]1 in Rango release inh shows 10%
Cc1ccc(C(=O)OCC(=O)Nc2ccccc2Sc2ccccc2)cc1C in GLA inh pH 4.5 shows -12
CCCCCC(=O)Nc1nc(C)c(-c2csc(Nc3ccccc3OCC)n2)s1 in Rango-impB inh shows 3.0%
COc1ccc(OCC(=O)N2CCN(C(=O)c3ccc([N+](=O)[O-])cc3)CC2)cc1 in Rango release inh shows -22%

This is a subset; the hit share may differ from the screen's.
